# Screening data from PubChem BioAssay.
# AID923: qHTS Assay for Allosteric/Competitive Inhibitors of Caspase-1: Spectroscopic Profiling in AFC Spectral Region; compound fluorescence, AFC spectral region (405/520 nm); almost no hit is shown here; Potency, µM (highest dose often 57.5 µM), for inactives: top-dose fluorescence increase, hits mostly activators; 75,000 tested, 1.1% active; active = well fitted activation curve with a large enough effect; inconclusive = small, poorly fitted or top-dose-only effect;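 also: potency is read from the fitted curve at half-maximal effect; 0% is about no effect; scaled to a free AFC standard on each plate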
#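 Titrations up to 57 uM read every 20 sec for 3 min (405/520 nm) with 50 nM caspase 1 and 5 uM Ac-WEHD-AFC, pH 7.5 HEPES buffer. Fluorescence-vs-time intercept gave baseline, scaled against on-plate AFC standard.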
# TSHR agonist: activates the human thyroid stimulating hormone receptor | P16473 | HEK293-CNG-TSHR cells (CNG channel as cAMP sensor), membrane potential dye, cAMP | Potency, µM (titrated, usually from 57.1 µM), without a hit: at the highest dose activation, actives largely listed as activators | 73,000 tested, 0.48% active; active = well fitted activation curve of enough size with the parental cells flat; inconclusive = any curve in the parental cells; inactive = parental cells flat and receptor cells flat or falling; also: potency is read from the fitted curve at half-maximal effect; % of control where 0% means no effect; weak receptor curves with flat parental cells got no call and are not listed
# Target sequence (P16473 whole entry, looked up): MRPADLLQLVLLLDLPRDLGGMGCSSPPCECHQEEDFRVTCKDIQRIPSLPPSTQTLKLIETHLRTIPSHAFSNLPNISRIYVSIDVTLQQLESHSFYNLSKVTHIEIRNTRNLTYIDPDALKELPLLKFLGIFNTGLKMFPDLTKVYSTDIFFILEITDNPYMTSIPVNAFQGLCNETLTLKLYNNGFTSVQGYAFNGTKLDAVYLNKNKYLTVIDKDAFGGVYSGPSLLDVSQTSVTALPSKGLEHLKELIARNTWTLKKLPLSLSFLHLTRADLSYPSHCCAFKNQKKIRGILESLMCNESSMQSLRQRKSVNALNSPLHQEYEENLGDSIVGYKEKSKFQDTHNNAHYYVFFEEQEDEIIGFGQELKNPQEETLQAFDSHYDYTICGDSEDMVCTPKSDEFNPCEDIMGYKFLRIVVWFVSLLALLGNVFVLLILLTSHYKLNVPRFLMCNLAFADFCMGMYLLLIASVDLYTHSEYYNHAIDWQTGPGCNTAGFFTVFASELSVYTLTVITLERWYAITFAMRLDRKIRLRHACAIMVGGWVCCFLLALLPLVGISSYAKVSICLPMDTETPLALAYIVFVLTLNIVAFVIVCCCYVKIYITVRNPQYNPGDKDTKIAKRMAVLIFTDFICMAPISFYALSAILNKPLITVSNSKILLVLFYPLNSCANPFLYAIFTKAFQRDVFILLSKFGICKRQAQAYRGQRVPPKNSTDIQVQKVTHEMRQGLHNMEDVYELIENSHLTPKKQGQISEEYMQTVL
#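 HEK 293 cells stably expressing TSHR and a modified CNG channel, with CNG-only parental cells as counterscreen, were preloaded 60 min at room temperature with membrane potential dye containing 100 uM RO 20-1724. Compound exposure was 30 min, and depolarization was read as fluorescence at 590 nm.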
# Resorufin fluor: compounds fluorescent in resorufin spectral region | 59,000 tested, 0.04% active | max dye-equivalent concentration, M | Compound fluorescence, resorufin region 547/598 nm, buffer; hits give high values; active = above 10 nM dye equivalent; inconclusive = 1 to 10 nM; inactive = 1 nM or less; a few of its hits are not listed in these tables; also: highest value over a series up to 38 µM
#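 Dye-equivalent concentration values derive from comparing each well's 547/598 nm fluorescence against resorufin standards included on every plate. Incubation was 15 min at room temperature in 100 mM Tris, pH 8.0.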
# A488 autofl: compound fluoresces in the A488 spectral region; compound autofluorescence, A488 spectral region, dye equivalency; hits give high values; max dye equivalency, M; 59,000 tested, 0.1% active; AID 591; active = above 10 nM dye equivalent; inconclusive = 1 to 10 nM; inactive = 1 nM or less; about half of its hits are not listed in these tables;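 also: highest value over a series up to 38 µM; compound alone in buffer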
#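 Compounds pin-transferred into 100 mM Tris buffer, pH 8.0, incubated 15 min at room temperature, then imaged with 480 nm excitation/540 nm emission filters. Fluorescence converted to Alexa 488 dye-equivalent concentration via an on-plate six-point A488 standard curve.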
# A647 autofl: compound fluoresces in the A647 spectral region | Compound fluorescence, A647 channel (570/671 nm), Tris buffer | max dye-equivalent concentration, M | 59,000 tested, under 10 active | AID 592; active means above 1 µM dye equivalent; inconclusive means 0.1 to 1 µM; inactive means 0.1 µM or less;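 also: values scaled relative to a standard on each plate; highest value over a series up to 38 µM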
#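 Buffer was dispensed, compounds and Alexa 647 standards were pin-transferred, and plates sat 15 min at room temperature. Intensity at 570/671 nm was then converted to dye-equivalent concentration using the plate's A647 standard curve.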
# The depositor's hits bear a star; i = inactive; ? = inconclusive; . = no result given; [ ] = dose if it differs, or a comment. Some of the compounds tested (hit frequency here may not be typical).
# Results follow in this order: AID923, TSHR agonist, Resorufin fluor, A488 autofl, A647 autofl
CCOc1ccc(-n2nnc3c(=O)n(CC(=O)c4ccccc4)cnc32)cc1
    -0.6%, 0%[11.4 µM], ., ., .
COc1cc(-c2nc3cnccn3c2Nc2ccccc2)ccc1O
    11%, -13%, ., ., .
Cc1sc(NC(=O)CSc2nnc(COc3ccccc3)n2C)c(C#N)c1C
    2.3%, ?, i, i, 4.9e-08
CCOc1ccc(NCC(=O)Nc2ccc(C)cc2C)cc1
    -0.7%, -1%, i, i, 1.8e-08
NC(=O)c1ccc(N2CCCCC2)c(N2C(=O)CCC2=O)c1
    2.9%, 5%, ., ., .
Cc1ccc(C)c(C(C)NC(=O)C2C3CCC(O3)C2C(=O)O)c1 (stereo not drawn)
    0.6%, -1%, i, i, 1e-09
CCc1ccc2[nH]cc(C(=O)OCCOC)c(=O)c2c1
    -0.8%, -8%, i, i, 5.8e-09
CCOC(=O)c1oc2ccccc2c1NC(=O)c1cccc(OC)c1OC
    0.5%, 5%, i, i, 3e-09
O=S(=O)(c1ccc(OCC(O)CN2CCc3ccccc3C2)cc1)N1CCOCC1 (stereo not drawn)
    1.6%, 2%, i, i, 2.4e-08
Cc1onc(-c2ccccc2)c1C(=O)N1CCN(C/C=C/c2ccccc2)CC1
    2.6%, 13%, ., ., .
Cc1ccc(-c2cnc(N)n2C)cc1C
    0.2%, -4%, i, i, 1e-09
C=C(C)Cn1c(CCNC(=O)CC)nc2ccccc21
    -0.2%, -4%[11.4 µM], i, i, 1e-09
COc1ccc(-c2noc(CCCC(=O)NCCc3ccccc3)n2)cc1OC
    -0.4%, ., i, i, 1e-09
Cc1ccc2cc(C#N)c(NCCCNC(=O)C3CCCO3)nc2c1 (stereo not drawn)
    10%, ., i, i, 2.1e-08
Oc1ccc(Br)cc1CN1CCCCCCC1
    1.2%, ?, ., ., .
Cc1ccc(S(=O)(=O)N(CC(=O)O)c2ccc(Cl)cc2)cc1
    1.6%, 1%, ., ., .
OC(c1ccc(Cl)cc1)c1nnc(-c2ccccc2)o1 (stereo not drawn)
    -0.2%, 0%, i, i, 4.3e-08
CCCCCN(C(=O)NC(=O)Nc1nncs1)S(C)(=O)=O
    -0.4%, ?, i, i, 1e-09
COc1ccc(-c2csc(NCc3ccco3)n2)cc1
    1.0%, -15%, i, i, 1e-09
CCN(CC)CCNC(=O)C1CCN(S(=O)(=O)N2CCCCC2)CC1
    -0.9%, ., i, i, 7.8e-09

# An excerpt from above in order of molecular weight, descending.
# Results follow in this order: AID923, TSHR agonist, Resorufin fluor, A488 autofl, A647 autofl
COc1ccc(-c2noc(CCCC(=O)NCCc3ccccc3)n2)cc1OC
    -0.4%, ., i, i, 1e-09
CCOC(=O)c1oc2ccccc2c1NC(=O)c1cccc(OC)c1OC
    0.5%, 5%, i, i, 3e-09
Oc1ccc(Br)cc1CN1CCCCCCC1
    1.2%, ?, ., ., .

# Next part
# Results follow in this order: AID923, TSHR agonist, Resorufin fluor, A488 autofl, A647 autofl
CCCCC(=O)N(CCOC)c1nnc(-c2ccc(OC)cc2)s1
    1.0%, 8%, i, i, 4e-09
CCCC(C)C(=O)Nc1nnc(C)s1 (stereo not drawn)
    -1.8%, -4%[11.4 µM], ., ., .
CS(=O)(=O)c1ccc2nc(NC(NC(=O)c3ccco3)(C(F)(F)F)C(F)(F)F)sc2c1
    ., ., i, i, 1.5e-08
COc1ccccc1OCCC(=O)OCC(=O)NC(=O)NC(C)(C)C
    -1.9%, ?, i, i, 3.7e-08
CCOc1ccc(NC(=O)N(CCN(C)C)C(C)c2ccncc2)cc1 (stereo not drawn)
    -1.1%, 3%, ., ., .
COc1ccc(-c2nnnn2C)cc1S(=O)(=O)NCCc1ccccc1
    -2.7%, 3%, ., ., .
CCCOc1nc(N)c(C#N)c(-c2ccccc2F)c1C#N
    3.5%, 16%, i, i, 1e-09
Cc1[nH]c2ccccc2c1CCO
    -0.6%, ?, i, i, 1.8e-08
CC(=O)Nc1cccc(N)c1
    1.9%, 1%, ., ., .
CCCCCc1cc(O)c2c(C)cc(=O)oc2c1
    2.1%, ?, ., ., .
Cc1ccnc(NS(=O)(=O)c2ccc(NC(=O)C3CCCO3)cc2)n1 (stereo not drawn)
    3.9%, 5%, ., ., .
CS(=O)(=O)N1CCC2(CC1)CN(C(=O)Nc1cccc(F)c1)C2
    -1.5%, -8%, i, i, 1e-09
CCc1nc(NCC2CCCO2)c(C#N)c2c1COC(C)(C)C2 (stereo not drawn)
    ., ., i, i, 8e-08
CCCn1c2c(c(O)c(C(=O)Nc3nc(C)cs3)c1=O)CCCC2
    -1.1%, -2%, i, i, 8.4e-09
C1CCc2c(nnc3c2-c2nonc2CC3)C1
    0.6%, -7%, i, i, 1.7e-08
C=C(C)Cn1c(COc2ccccc2)nnc1SCC(=O)O
    1.4%, -3%, ., ., .
Cc1c2cnccc2c(C)c2c1c1ccccc1n2CCOC(=O)c1ccccc1
    13%[11.5 µM], 8%[11.4 µM], i, i, 1e-09
CCSc1ccccc1C(=O)NCCCn1ccnc1
    -1.4%, 2%, i, i, 2.6e-08
N#CC1=C(N)SC(N)=C(C#N)C1c1ccc(C(F)(F)F)cc1
    3.2%, -4%, i, i, 1e-09
O=C(NCCNC(=O)C(c1ccccc1)c1ccccc1)c1ccco1
    -0.3%, ?, i, i, 2e-08
COc1ccc(N2CCN(C(=O)CCS(=O)(=O)c3cccc4nsnc34)CC2)cc1
    1.5%, -2%, i, i, 4.5e-09
Cn1c(=O)c2c(nc(Cl)n2Cc2ccncc2)n(C)c1=O
    -0.9%, -12%, i, i, 1e-09
COc1ccc(CNC(=O)c2cnc(C)cn2)c(OC)c1
    0.9%, ., i, i, 1e-09
O=C(NCc1ccc2c(c1)OCO2)c1cnc2ccccn2c1=O
    -0.9%, 10%, ., ., .
O=S(=O)(NC1c2cccc3cccc(c23)C1N1CCN(CCO)CC1)c1ccccc1 (stereo not drawn)
    0.9%, 21%, i, i, 2.1e-08
CCOC(=O)C(C)Sc1nc(-c2cccs2)ccc1C#N (stereo not drawn)
    ., ., i, i, 1e-09
CCOC(=O)N1CCC(Nc2cc(C)nc3c(-c4ccccc4OC)c(C)nn23)CC1
    2.8%, -1%, ., ., .
CCOC(=O)CSC1=C(C#N)C(c2ccccc2OCC)C(C(=O)OCC)C(=O)N1 (stereo not drawn)
    0.5%, -4%, i, i, 3.7e-08
O=C(c1ccc2c(c1)OCO2)N1CCN=C1SCc1ccccc1
    -0.2%, 27%, ., ., .
CCOc1ccc2sc(NS(=O)(=O)c3ccc(OC)c(OC)c3)nc2c1
    0.1%, 10%, i, i, 4.6e-09
COc1ccccc1OCc1ccc(C(=O)N2CCN3CCCC3C2)cc1 (stereo not drawn)
    1.5%, -5%, i, i, 2.6e-09
COc1ccc(-c2cc3nc4n(c(=O)c3s2)CCOC4)cc1
    ., ., i, i, 1e-09
Cc1cc(C)c(C#N)c(OCC(=O)c2ccccc2)n1
    ., ., i, i, 4e-09
CCCC(C(=O)NC1CCCCC1)N(CC1CCCO1)C(=O)CNS(=O)(=O)c1ccc(F)cc1 (stereo not drawn)
    -1.0%, 1%, i, i, 1.5e-08
CCN(CC)C(=O)C1=C(C)NC(=O)NC1c1ccccc1F (stereo not drawn)
    -2.9%, 6%, i, i, 2e-08
CN(C)CCCc1cc(C(=O)Nc2ccc(-c3ccncc3)cc2)ccc1O
    -2.9%, 5%, ., ., .
Cc1cccc2cc(CN(Cc3nnnn3Cc3ccco3)C3CCCC3)c3nnnn3c12
    -0.1%, ?, i, i, 1e-09
CN(Cc1ccccc1)S(=O)(=O)c1ccc2c(c1)n(C)c(=O)n2C
    0.3%, 6%, i, i, 4.8e-09
CCn1c(COc2ccc(C)cc2)nnc1SCC(=O)Nc1ccc2c(c1)OCCO2
    -2.7%, 7%, i, i, 7.6e-09
Cc1ccccc1-c1noc(-c2cccs2)n1
    -1.4%, 7%, ., ., .
CCCCn1c(SCC(=O)N2CC(C)CC(C)C2)nc2cc(S(N)(=O)=O)ccc21 (stereo not drawn)
    -0.2%, ?, i, i, 2e-08
CCOc1ccccc1N(CC(=O)Nc1ccc2c(c1)OCCO2)S(C)(=O)=O
    3.3%, ., i, i, 1e-09
CCOc1ccc(OCCSc2nc(C)cc(=O)[nH]2)cc1
    0.5%, -4%, i, i, 1.4e-09
COc1cc(C(=O)Nc2cc(-c3nc4cc(C)ccc4o3)ccc2C)cc(OC)c1OC
    0.2%, 6%, ., ., .
c1cncc(-c2nnc3sc(C4CCCCC4)nn23)c1
    ., ., i, i, 1e-09
CCOC(=O)N1CCN(C(=O)C2CCN(S(=O)(=O)CC)CC2)CC1
    -0.7%, 0%, i, i, 1e-09
COc1ccc2nc(C)c(C(=O)OCCN(C)C)cc2c1
    1.4%, -1%, i, i, 1.4e-09
COc1cc(C(=O)N2CCN(C(=O)c3ccccc3)CC2)cc(OC)c1OC
    -0.4%, -3%, i, i, 2.1e-09
Cc1ccc(Nc2nc(N)nc(CN3CCN(C(=O)c4ccco4)CC3)n2)cc1Cl
    1.4%, -4%, i, i, 1e-09
O=C(O)CC(C(=O)OC1CCCCC1)N1CCOCC1 (stereo not drawn)
    -1.5%, 2%, i, i, 2.6e-08
CCOC(=O)C(NC(=O)c1ccccc1)(N1CCOCC1)C(F)(F)F (stereo not drawn)
    -0.5%, 5%, i, i, 1e-09
COC(=O)[C@H]1C[C@@H]1[C@H](NS(=O)(=O)c1ccc2ccccc2c1)c1ccccc1
    -1.1%, ?, ., ., .
CC(=O)c1ccc(N2CCN(S(=O)(=O)c3cccc(S(=O)(=O)N4CCOCC4)c3)CC2)cc1
    1.4%, ?, i, i, 1.8e-08
Cc1ccccc1-n1c(SCC(=O)N2CCCC2)nnc1-c1ccccn1
    0.6%, -2%, i, i, 2.4e-09
Cc1cccc(N2CCN(c3nc4ccccc4n4cnnc34)CC2)c1C
    0.6%, 13%, ., ., .
Nc1nnc(Cc2c[nH]c3ccccc23)s1
    2.7%, -5%, i, i, 1.5e-09
CCC(=O)Nc1cc(-c2nn(C)c(=O)c3ccccc23)ccc1OC
    0.2%, ?, i, i, 1e-09
Cc1cnc(N)c2c(=O)oc3ccccc3c12
    3.9%, 0%, ., ., .
CN(C)C(=O)N1CCCC(C(=O)NCc2cccs2)C1 (stereo not drawn)
    0.6%, 1%, i, i, 1e-09
CC(C)OC(=O)CCCCCN1C(=O)CSC1=S
    -0.5%, -9%, i, i, 1.4e-09

# (continued)
# Results follow in this order: AID923, TSHR agonist, Resorufin fluor, A488 autofl, A647 autofl
Cc1cc(C(F)(F)F)c(C#N)c(SCC(=O)NC2CC2)n1
    ., ., i, i, 1e-07
CCCC/C=C/C(NC(=O)c1ccccc1)c1ccccc1 (stereo not drawn)
    1.3%, ?, ., ., .
COC(=O)c1ccc(CC(=O)c2c(C)cc(O)cc2O)o1
    1.7%, 3%, i, i, 1e-09
Cc1cc(N2CCN(C)CC2)nc(N2CCOCC2)n1
    0.1%, 2%, i, i, 1.8e-08
N#Cc1nc(-c2ccccc2Cl)oc1NCc1ccco1
    -1.8%, 29%, i, i, 6.7e-08
O=C1CC(N2CCN(CCc3ccccn3)CC2)C(=O)N1c1ccc(Cl)cc1 (stereo not drawn)
    -0.2%, -4%, i, i, 2.1e-08
COc1ccccc1N1CCN(C(=O)COc2ccc(Cl)cc2Br)CC1
    0.1%, -1%, ., ., .
CN(C)CCCNC(=O)CCC1CCCCC1
    1.3%, 6%, ., ., .
COc1ccccc1-c1ccc2ncnc(N(C)Cc3ccco3)c2c1
    1.0%, ?, i, i, 1e-09
